LASV entry inh: qHTS for Inhibitors of binding or entry into cells for Lassa Virus. AID 540256, 2011. Lassa virus pseudotype entry inhibition, cell reporter; control for the full effect not named in the record. 300,000 compounds, 1.2% hits. Potency, µM (top dose mostly 37.9 µM), without a hit: at the top dose activity change, negative = inhibition, hits mostly inhibitors; active means well fitted inhibition curve with a large enough effect; inconclusive means small, poorly fitted or top-dose-only effect, or effect the other way; inactive means flat fitted curve, though single readings scatter; tested in HEK293 cells; further: on the % scale 0 is the no-effect control and ±100 the full control effect; nearly all actives have a fitted effect of over 50% in size; luciferase read-out
Cruzain inh Det: qHTS Assay for Promiscuous and Specific Inhibitors of Cruzain (with detergent) | AID 1478, 2009 | Cruzipain (Trypanosoma cruzi), P25779 | 200,000 compounds, 0.43% hits | Potency, µM, inactives show max response, negative = inhibition, usual class: inhibitors | purified cruzain, Z-FR-AMC fluorescence, 0.01% Triton;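 further: plate controls were neutral wells for no effect and buffer without enzyme for full effect; nearly all actives have a fitted effect of over 40% in size; top concentration of the series not given in the record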
Target sequence (P25779 123-467 limits assumed): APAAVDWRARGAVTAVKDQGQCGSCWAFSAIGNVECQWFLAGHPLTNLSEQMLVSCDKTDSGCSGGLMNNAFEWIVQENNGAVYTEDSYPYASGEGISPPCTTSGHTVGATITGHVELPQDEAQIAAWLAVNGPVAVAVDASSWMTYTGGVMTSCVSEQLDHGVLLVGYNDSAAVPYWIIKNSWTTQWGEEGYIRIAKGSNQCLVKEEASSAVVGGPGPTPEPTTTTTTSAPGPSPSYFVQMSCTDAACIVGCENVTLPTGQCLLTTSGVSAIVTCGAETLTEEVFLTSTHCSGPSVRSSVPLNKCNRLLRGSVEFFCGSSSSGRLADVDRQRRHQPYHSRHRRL
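Detergent-containing arm of a paired screen for aggregation-based inhibition: 0.01% Triton X-100 present. Cruzain at 1.5 nM cleaved 2 uM Z-FR-AMC at pH 5.5 with 5 mM DTT; AMC fluorescence gain over 60 s measured activity.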
NS1 function inh: qHTS Assay for Inhibitors of Influenza NS1 Protein Function. Potency, µM (series often up to 46.1 µM), for the others: top-dose activity, positive = more growth. AID 2326, 2010. S. cerevisiae slowed by influenza A NS1, growth recovery by OD600. 270,000 compounds, 0.4% hits; active means well fitted rising curve with a large enough effect; inconclusive means small, poorly fitted or top-dose-only effect; inactive means no such curve, though single readings can be large or run the other way; further: nearly all actives have a fitted effect of over 50% in size
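Read-out: OD600 growth recovery of NS1-expressing budding yeast. Cells grown overnight at 30C in -URA glucose medium, washed, resuspended and diluted 1:100 in 2% galactose assay medium, pH 6.0. Same strain lacking NS1 served as positive control.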
Cruzain inh noDet: qHTS Assay for Promiscuous and Specific Inhibitors of Cruzain (without detergent); Cruzipain (Trypanosoma cruzi), P25779; purified cruzain, Z-FR-AMC fluorescence, no detergent; Potency, µM, without a hit: max response, negative = inhibition, actives largely listed as inhibitors; 200,000 compounds, 2.3% hits;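 further: plate controls were enzyme without inhibitor for no effect and buffer without enzyme for full effect; nearly all actives have a fitted effect of over 40% in size; top concentration of the series not given in the record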
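Detergent-free condition (0.00005% Triton X-100) in acetate buffer pH 5.5 with DTT. 1.5 nM enzyme and compound were pre-mixed 15 min, then 2 uM Z-FR-AMC substrate added; reaction progress from fluorescence change between first and third reads (60 s).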
SARS PLP yeast: qHTS of Yeast-based Assay for SARS-CoV PLP | 330,000 compounds, 0.19% hits | S. cerevisiae expressing SARS-CoV PLpro, growth rescue; control for the full effect not named in the record | Potency, µM (doses to about 32.9 µM), without a hit: at the highest dose activity, positive = growth rescue; active means well fitted rising curve with a large enough effect; inconclusive means small, poorly fitted or top-dose-only effect; inactive means no such curve, though single readings can be large or run the other way; further: 0% is about no effect; nearly all actives have a fitted effect of over 55% in size; growth read by luminescence after 48 h
MARV entry inh: qHTS for inhibitors of binding or entry into cells for Marburg Virus; Marburg virus pseudotyped entry inhibition, cell reporter; control for the full effect not named in the record; about a third of the inactives were read at about 46 µM; Potency, µM (doses to about 37.8 µM), for inactives: at the top dose activity change, negative = inhibition, most hits filed as inhibitors; 300,000 compounds, 1.8% hits; AID 540276, 2011; active = well fitted inhibition curve with a large enough effect; inconclusive = small, poorly fitted or top-dose-only effect, or effect the other way; inactive = flat fitted curve, though single readings scatter; tested in HEK293 cells; about a fifth of its hits are not listed in these tables; further: on the % scale 0 is the no-effect control and ±100 the full control effect; luciferase read-out
RE007 growth inh: qHTS Assay for Inhibitors of the HIV-1 protein Vpr; S. pombe RE007 Vpr strain, BacTiter-Glo ATP luminescence, 24 h; control for the full effect not named in the record; Potency, µM (doses to about 92.2 µM), inactives show at the top dose activity change, negative = less growth; 360,000 compounds, 0.21% hits; active = well fitted falling curve with a large enough effect; inconclusive = small, poorly fitted or top-dose-only effect; inactive = no such curve, though single readings can be large or run the other way;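 further: on the % scale 0 is the no-effect control and ±100 the full control effect; nearly all actives have a fitted effect of over 50% in size; the assay follows cell death caused by Vpr and the record does not say whether a fall means rescue or toxicity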
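Fission yeast strain RE007, carrying one chromosomally integrated HIV-1 vpr copy, was seeded at OD 0.01 in PMG+AL medium with 23 nL pinned compound. After 24 h at 30 °C and 99% humidity, viability was read by BacTiter-Glo luminescence.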
2A StopGo: High Throughput Screening for Foot and Mouth Disease Virus Antivirals; 410,000 compounds, 1.2% hits; human cells with a luciferase reporter of 2A StopGo recoding; control for the full effect not named in the record; AID 1159524, 2015; Potency, µM (doses to about 57.9 µM), for the others: top-dose signal change, negative = less light; active = well fitted falling curve with a large enough effect; inconclusive = small, poorly fitted or top-dose-only effect; inactive = no such curve, though single readings can be large or run the other way; tested in HEK293T cells; further: on the % scale 0 is the no-effect control and ±100 the full control effect; nearly all actives have a fitted effect of over 45% in size; luciferase light after 4 h
The depositor's hits bear a star; ? = inconclusive; nt = no result given; & = joins results of further samples; [ ] = another dose, or the depositor's remark. Unless noted, the call rests on the fitted dose curve; in most records, active means well fitted curve in the direction sought with a large enough effect; inconclusive means small, poorly fitted or top-dose-only effect, or another doubt; inactive means no such curve, though single readings can be large; an effect the other way counts as inactive or inconclusive. Potency means the concentration at half of the fitted maximal effect.

SMILES	LASV entry inh	Cruzain inh Det	NS1 function inh	Cruzain inh noDet	SARS PLP yeast	MARV entry inh	RE007 growth inh	2A StopGo
CCCCN(c1ccccc1)S(=O)(=O)c1cccc(C(=O)Nc2c(C)n(C)n(-c3ccccc3)c2=O)c1	-17%	nt	nt	nt	nt	?	6%	?
CC(C)CNC(=O)CSc1ccc(Cl)cc1	10%	3.7%	-7%	5%	-1%	26%	-4%	25%
Cc1onc(-c2ccccc2)c1C(=O)N/N=C/c1cn(C)c2ccccc12	-25%	nt	nt	nt	-7%	-1%[14.2 µM]	1%	?
CCOC(=O)Cn1c(=O)n(Cc2ccc(C)cc2)c(=O)c2cccnc21	nt	nt	-2%	nt	0%	nt	-1%	-21%
Cc1csc(=O)n1CC(=O)OCC(=O)c1c(N)n(CC(C)C)c(=O)n(C)c1=O	-11%	nt	nt	nt	0%	-6%[46.1 µM]	20%	0%
CCCN1CCC(NC(=O)C2CC=CCC2C(=O)O)CC1 (centres undefined)	-5%[46.1 µM]	nt	3%	nt	-2%	0%[46.1 µM]	5%	0%
CCOc1cc(Br)c(C(=O)O)cc1OC	-5%	5.9%	-3%	1%	12%[6.58 µM]	?	-5%	-18%
O=C(CSc1nc2ccccc2[nH]1)N1CCN(S(=O)(=O)c2ccc(Cl)cc2)CC1	-9%	-1.1%	-5%	-21%	7%	0%	3%	?
Cc1cc(C)nc(SCC(=O)NC2CCCC2)n1	nt	nt	2%	nt	0%	1%[46.1 µM]	1%	3%
CC(=O)c1ccc2noc(-c3ccc(F)cc3)c2c1	10%	nt	nt	nt	-2%	5%[46.1 µM]	-7%	0%
O=C(CSc1nnc(CNC(=O)c2cccs2)o1)NCCc1ccccc1	?	2.5%	-3%	-1%	10%	12%	-1%	-14%
Cc1ccccc1NC(=S)NCCc1ccc(S(N)(=O)=O)cc1	10%	-1.2%	16%	-2%	17%	?	-6%	-13%
CCOc1ccc(N(CC(=O)Nc2ccc(OC)cc2)S(=O)(=O)c2c(C)noc2C)cc1	nt	-3.4%	-2%	1%	3%	-6%	5%	0%
CCOc1cccc(CC(=O)N2CCc3c([nH]c4ccccc34)C2c2ccc(OC)cc2)c1OCC (centres undefined)	?	4.2%	nt	-12%	nt	nt	nt	-26%
O=C(CSc1nncn1-c1ccccc1F)NC1CCCCC1	2%	nt	nt	nt	4%	?	10%	19%
CCOc1cc2[nH]c(=O)n(CCCCC(=O)N3CCN(c4ccccc4)CC3)c(=O)c2cc1OCC	?	4.4%	nt	8%	nt	nt	nt	?
COC(=O)Cn1c(=NC(=O)c2cc(OC)cc(OC)c2)sc2cc(OC)ccc21	0%	-19%	0%	?	14%	2%	37%	-12%
Cc1cc(C(=O)COC(=O)c2nc3nccc(C)n3n2)c(C)n1CC1CCCO1 (centres undefined)	-22%	nt	nt	nt	3%	1%[46.1 µM]	-20%	28%
Cc1cccc(NC(=O)c2cc3n(n2)C(C(F)(F)F)CC(C2CC2)N3)c1C (centres undefined)	16%	4.8%	9%	?	3%	?	-1%	-11%
COCc1cc(C)nc2sc(C(=O)Nc3ccc(C(=O)OC)cc3)c(N)c12	nt	nt	23%	nt	1%	nt	6%	4%
COc1cc(/C=N/Nc2ccc3ccccc3c2)ccc1OC(=O)c1ccco1	0%	0.3%	2%	25µM*	-26%	?	-9%	23%
CCN(CC(=O)Nc1ccccc1C(F)(F)F)C(=O)CN1C(=O)NC2(CCCC2)C1=O	20%	nt	nt	nt	0%	-8%[46.1 µM]	3%	-15%
Cc1ccc(N2NC(C)(c3cccs3)NC2=S)cc1 (centres undefined)	-28%	-12%	10%	4%	-35%	?	0%	44%[activator]
CCCCCc1c(O)c2ccccc2[nH]c1=O	7%	-0.3%	-15%	-8%	-4%	?	-19%	35%[activator]
Cc1ccc(O)c(C(=O)/C=C/c2ccc3c(c2)OCCCO3)c1	-12%	-5.6%	-48%	-2%	-29%	-10%	6%	-20%
COc1cccc(-c2cc(C(F)(F)F)n3nc(C(=O)N4CCC5(CC4)OCCO5)cc3n2)c1	9%	-4.6%	-48%	?	-1%	-8%	-1%	nt
CCCn1c(SCC(=O)NCCc2ccc(Cl)cc2Cl)n[nH]c1=O	?	1.0%	-4%	0%	-4%	-21%	-7%	nt
CN(C)S(=O)(=O)c1ccc(Cl)c(NC(=O)CN2C(=O)NC3(CCCC3)C2=O)c1	6%[46.1 µM]	nt	0%	nt	2%	13%[46.1 µM]	-6%	-7%
COc1ccc(CCN2CC34C=CC(O3)C(C(=O)NCc3ccccc3)C4C2=O)cc1OC (centres undefined)	0%	5.1%	-2%	-8%	-3%	27%&27%[46.1 µM]	-15%	7%
Cc1ccc2nc(NC(=O)CSc3nc(=O)n(CCN(C)C)c4c3CCCC4)sc2c1	-18%	nt	nt	nt	-4%	-20%	-8%	-5%
CCCCc1ccc(NC(=O)Cn2nnc3sc4c(c3c2=O)CCC(C)C4)cc1 (centres undefined)	-17%[46.1 µM]	-5.5%	nt	-11%	nt	10%[46.1 µM]	nt	-13%
COCCCNC(=O)CSc1nc2cc3c(cc2c(=O)n1CCCCCC(=O)NCc1ccc2c(c1)OCO2)OCO3	?	3.4%	nt	-12%	nt	nt	nt	-13%
COc1cccc(CC(=O)OCC(=O)NC(=O)c2ccc(OC(F)F)cc2)c1	4%[46.1 µM]	nt	nt	nt	1%	21%	-1%	-21%
Cc1ccc(NC(=O)N(C)c2ccccc2)cc1	11%[46.1 µM]	nt	2%	nt	1%	?	9%	28%
CC(=O)c1ccc(OCCNS(=O)(=O)c2ccc(-n3cnnn3)c(C)c2)cc1	-14%[46.1 µM]	nt	-6%	nt	3%	-23%[46.1 µM]	11%	-7%
Cc1cc(C)c(OCC(=O)Nc2ccccn2)c([N+](=O)[O-])c1	6%	-3.7%	-4%	-12%	12%	9%	-16%	-15%
COc1ccc(S(=O)(=O)N(CC(=O)NN=C2CCN(C)CC2)c2ccc(C)cc2)cc1OC	-4%	nt	27%	nt	-7%	19%	4%	-12%
Nc1ccc2nc(-c3ccc(N)c(Cl)c3)[nH]c2c1	?	?	3%	?	-34%	?	-16%	7%
Cc1[nH]c2ccccc2c1C1(O)C(=O)Nc2ccc(Cl)cc21 (centres undefined)	-4%[46.1 µM]	-3.8%	nt	-10%	nt	-23%[46.1 µM]	nt	-9%
Cc1cccc(NC(=O)c2ccc(NCC3CCCO3)c([N+](=O)[O-])c2)n1 (centres undefined)	?	nt	nt	nt	-1%	-12%	0%	12%
CC(/C=N/NC(=O)c1nnn(-c2nonc2N)c1C(C)C)=C\c1ccco1	nt	nt	-1%	nt	0%	nt	-7%	-12%
CC(NC(=O)CSc1nnc(-c2cccnc2)n1N)c1ccccc1 (centres undefined)	nt	nt	7%	nt	0%	1%[46.1 µM]	2%	5%
CC1=CC(=Nc2c(C)n(C)n(-c3ccccc3)c2=O)C=C(C)C1=O	?	-0.7%	15%	-5%	5%	?	nt	?
CC(/C=N/N1CCN(c2ccccc2)CC1)=C\c1ccccc1	20%	3.9%	-2%	?	-2%	23%	4%	23%
Cc1nn(CCCC(=O)Nc2cc(Oc3ccccc3)cc([N+](=O)[O-])c2)c(C)c1[N+](=O)[O-]	4%	-7.4%	20%	-8%	-22%	?	0%	0%
CCC1CCC(NC2CCCCNC2=O)CC1 (centres undefined)	1%	2.8%	-3%	-7%	0%	4%	-3%	-7%
Cc1ccc(CNC(=O)c2ccc(CN3CCOCC3)cc2)cc1	3%	2.0%	12%	4%	1%	2%	-16%	6%
COc1ccc(OCc2cc(C(=O)N3CCN(CC4CC4)CC3)no2)c(Cl)c1	nt	nt	-15%	nt	-2%	nt	-4%	3%
CCSC1=N/C(=C\c2ccc(-c3ccccc3[N+](=O)[O-])o2)C(=O)S1	19%	-30%	-2%	?	13%	?	-1%	18%
COCCC(=O)N1CCC(Oc2ccc(C(=O)NCCC3=CCCCC3)cc2)CC1	nt	nt	-7%	nt	19%	nt	21%	-1%
O=c1[nH]n(-c2ccccc2Cl)c(=O)c2ccccc12	17%[46.1 µM]	nt	7%	nt	0%	-2%[46.1 µM]	2%	-9%
Cc1c(NC(=O)OC(C)C)sc(=S)n1C	21%	-3.9%	13%	-6%	-18%	2%	11%	-26%
CC(C)N(C(=O)Cn1c(-c2ccccc2Cl)nc2ccccc21)c1ccccc1	-17%	-3.6%	-17%	6%	19%	1%	-6%	-14%
COc1ccc(C(=O)N2CCN(c3ccccc3)CC2)cc1S(=O)(=O)N1CCOCC1	?	nt	3%	nt	0%	-10%[46.1 µM]	-9%	19%
O=C(NNC(=O)c1c(O)c2ccccc2[nH]c1=O)c1ccccc1	?	nt	-16%	nt	-21%	-1%[46.1 µM]	10%	13%
COc1ccc(CNC(=O)Cn2nnc(-c3ccc(C(F)(F)F)cc3)n2)cc1	-4%[46.1 µM]	1.6%	nt	6%	nt	nt	nt	-4%
CC(Oc1ccc(Cl)cc1)C(=O)N(C)CC(=O)Nc1ccc(N2CCOCC2)cc1 (centres undefined)	-1%	nt	5%	nt	-16%	-18%	-17%	0%
CC1CN(C(=O)c2cc3c(=O)n4ccccc4nc3n2C)CC(C)O1 (centres undefined)	12%[46.1 µM]	nt	-4%	nt	0%	?	13%	4%
CCC(C)c1ccc(NC(=S)NCc2ccccn2)cc1 (centres undefined)	-6%	nt	-39%	nt	-5%	2%[14.2 µM]	-14%	0%
Cn1nc(C(C)(C)C)c(NC(=O)c2ccc(F)cc2)c1C(C)(C)C	5%	nt	1%	nt	0%	-1%	-2%	-13%
CC(=O)Cn1ncc(N2CCCCC2)c(Cl)c1=O	nt	nt	3%	nt	15%	nt	-6%	43%[activator]
C=CCn1c(SC(CCO)C(=O)NCc2ccco2)nc2sc3c(c2c1=O)CCC3 (centres undefined)	-21%	-4.4%	7%	-4%	4%	-18%	7%	-15%

Assay outcomes as filed in PubChem BioAssay.
